D2 agonist = agonists of human D2 dopamine receptor (beta-arrestin). activation, % (test concentration not listed). hit rate 0.084% among 360,000. DiscoveRx PathHunter D2 beta-arrestin, luminescence, 90 min; 100% = 57 uM dopamine signal; in the data active = activation above about 40%; inconclusive = about 15% to 40%; inactive = below about 15%; also: compound concentration not given in the record; the text of the record calls up to 30% inactive
Target sequence (P14416 whole entry, looked up): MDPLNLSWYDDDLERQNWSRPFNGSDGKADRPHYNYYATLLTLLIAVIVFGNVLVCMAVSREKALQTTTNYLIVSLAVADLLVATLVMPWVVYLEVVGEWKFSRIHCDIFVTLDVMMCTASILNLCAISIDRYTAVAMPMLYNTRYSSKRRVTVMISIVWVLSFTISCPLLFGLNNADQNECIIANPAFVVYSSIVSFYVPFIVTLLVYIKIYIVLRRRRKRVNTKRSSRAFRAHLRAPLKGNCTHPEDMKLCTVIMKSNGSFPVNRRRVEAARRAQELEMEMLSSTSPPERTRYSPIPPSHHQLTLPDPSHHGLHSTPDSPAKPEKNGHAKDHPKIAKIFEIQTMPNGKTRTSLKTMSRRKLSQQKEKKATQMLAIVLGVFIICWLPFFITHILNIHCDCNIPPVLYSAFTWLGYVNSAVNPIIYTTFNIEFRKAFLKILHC
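DiscoveRx PathHunter D2 beta-arrestin cells (2,100/well) attached overnight, then compound-stimulated 90 min at 37 C in HBSS/10 mM HEPES/0.1% Tween-20 buffer; beta-galactosidase complementation read by luminescence after 1 h at ambient temperature. Dopamine 57 uM final (EC100) as control.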
TRPML1 agonist = agonists of human TRPML1 channel; Q9GZU1; TRPML1-expressing cells, Ca2+ dye fluorescence, FDSS; host cell line not named in the record; reference of the full effect not given here; activation, % (no concentration beside the values); hit rate 0.12% among 410,000; AID 624414; in the data active = activation above about 50%; inconclusive = about 30% to 50%; inactive = below about 30%; also: 0% is about no effect; the text of the record puts the active cut at 80%
Target sequence (Q9GZU1 whole entry, looked up): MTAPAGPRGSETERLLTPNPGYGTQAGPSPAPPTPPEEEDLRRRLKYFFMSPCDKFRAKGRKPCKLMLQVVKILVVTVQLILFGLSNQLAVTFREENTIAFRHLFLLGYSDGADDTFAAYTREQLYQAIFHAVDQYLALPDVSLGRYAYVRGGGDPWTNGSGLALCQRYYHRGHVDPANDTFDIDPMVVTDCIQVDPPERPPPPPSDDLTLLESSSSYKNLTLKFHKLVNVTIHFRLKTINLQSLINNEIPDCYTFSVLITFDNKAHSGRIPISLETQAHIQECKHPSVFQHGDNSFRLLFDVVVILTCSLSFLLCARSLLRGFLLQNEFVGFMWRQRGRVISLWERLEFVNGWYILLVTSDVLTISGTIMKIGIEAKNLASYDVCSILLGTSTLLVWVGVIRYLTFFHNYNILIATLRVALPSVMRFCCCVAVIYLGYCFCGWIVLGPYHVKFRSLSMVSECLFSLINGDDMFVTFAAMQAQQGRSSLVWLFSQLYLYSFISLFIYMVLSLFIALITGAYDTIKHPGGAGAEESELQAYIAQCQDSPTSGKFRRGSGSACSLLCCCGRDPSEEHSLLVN
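Cells: TRPML1-DL, 1X Tet inducer, ~16 h at 37 degrees C/5% CO2. Dye: ABD Ca8 no-wash + quencher, 45-90 min RT. Read: 10 s baseline, compound add, 110 s agonist phase; 54-4 EC80 (4uM final), 110 s antagonist phase.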
CtBP-E1A inh = inhibitors of CtBP/E1A interaction. AID 651724. activity change, % (concentration not given with the values). AlphaScreen GST-E1A/His-CtBP binding, 1536-well; stronger effect = lower value; control for the full effect not named in the record. hit rate 0.49% among 340,000; in the data active means activity change below about -65%; inconclusive means about -30% to -65%; inactive means above about -30%; also: % is scaled to controls: 0 for no effect and ±100 for the full control effect
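Steps: dispense buffer (Tris pH 8.0, NaCl 300 mM, TCEP 1 mM, BSA, Tween 20); add 5X protein mix (GST-E1A, His-CtBP, 125 nM each); pin 23 nL compound; 2 h at 37 °C, dark; add 5X beads (50 ug/mL); 1 h; read.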
PINK1 modulator = PINK1 expression modulation. PINK1 immunofluorescence, high-content cytometry, 24 h. Potency, µM (doses to about 76.6 µM), for the others: at the top dose activation (PINK1 increase), actives largely listed as activators. AID 624263. hit rate 0.2% among 410,000; active = well fitted activation curve with a large enough effect; inconclusive = small, poorly fitted or top-dose-only effect; inactive = flat fitted curve, though single readings scatter; cell line not stated here;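 also: potency is read from the fitted curve at half-maximal effect; % of control where 0% means no effect; nearly all actives have a fitted effect of over 65% in size; a mitochondrial uncoupler was the plate control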
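Stable cell line, 250 cells/well, 12 h attachment; compounds pinned at 5 concentrations, 24 h; CCCP control. Fixed with nuclear dye, primary antibodies 12 h at 10 degrees C, secondary plus cell stain; laser-scanning cytometer read.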
TRPML1 blocker = blocks the human TRPML1 channel; Q9GZU1; TRPML1-inducible cells, Ca2+ dye fluorescence, FDSS; stronger effect = lower value; inhibition of EC80 agonist-evoked calcium signal; activity change, negative = inhibition, % (test concentration not listed); hit rate 0.02% among 390,000; in the data active means activity change below about -50%; inconclusive means about -30% to -50%; inactive means above about -30%;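 also: stimulus is agonist 54-4 at its EC80 concentration; % is scaled to controls: 0 for no effect and ±100 for the full control effect; compound concentration not given in the record; the text of the record puts the active cut at -80%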
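Calcium fluorescence in TRPML1-DL cells induced overnight with Tet: a 110 s read after compound pin addition, then a 110 s antagonist read after challenge with 54-4 at 4 uM final (EC80).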
Six1-Eya2 blk = blocks human Six1 binding to Eya2; activity change, % (concentration not given with the values); AID 651725; Q15475+O00167; AlphaScreen GST-Six1/His-Eya2 binding, biochemical; stronger effect = lower value; control for the full effect not named in the record; hit rate 0.56% among 360,000; in the data active = activity change below about -65%; inconclusive = about -30% to -65%; inactive = above about -30%; also: % is scaled to controls: 0 for no effect and ±100 for the full control effect
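AlphaScreen luminescence read after one hour at 37 °C in darkness. Pin-transferred compounds met GST-Six1 and His-Eya2 protein (5X stock 250 nM/500 nM) plus glutathione donor and Ni-chelate acceptor beads (5X, 50 ug/mL).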
Numbers without * were called inactive; ? = inconclusive; · = no result given; & = joins results of further samples; [ ] = remark or other dose.

SMILES | D2 agonist | TRPML1 agonist | CtBP-E1A inh | PINK1 modulator | TRPML1 blocker | Six1-Eya2 blk
CC(=O)c1ccc(NC(=O)c2noc(C(C)C)c2[N+](=O)[O-])cc1 | 15 | 0.2 | 9 | -0.9% | -11 | 2
COCCN(C(=O)COC(=O)C12CC3CC(CC(Cl)(C3)C1)C2)c1c(N)n(Cc2ccccc2)c(=O)[nH]c1=O | -1.3 | -1.0 | 0 | 3.5% | -4 | -8
O=C(CSc1nnc(-c2cccs2)n1Cc1ccccc1)N1CCc2ccccc2C1 | -2.4 | -0.1 | -2 | -0.4% | -9 | -2
CC(C)c1nc2ccc(C(=O)NCc3ccc(F)cc3)cc2o1 | · | 0.2 | · | 0.3% | 4 | ·
O=C(/C=C/c1ccccc1)OCC(=O)c1ccc[nH]1 | 1.8 | -0.5 | -9 | 4.4% | -2 | 1
CCOc1cccc(NC(=O)c2cnccc2C(F)(F)F)c1 | -2.0 | 0.0 | 8 | -0.4% | 15 | -2
CCCCCC(=O)NC(Cc1ccc(OC)c([N+](=O)[O-])c1)C(=O)O (stereo not given) | 0.8 | -0.1 | · | -0.2% | -12 | -1
Cc1ccccc1-c1n[nH]nc1C1=CC(=O)C[C@H](c2ccc(F)cc2)C1 | -4.5 | 1.7 | -5 | 0.1% | -2 | -1
CN1CCN(NC(=O)c2cc(-c3cccc(Cl)c3)nc3ccccc23)CC1 | 4.3 | 1.5 | 2 | 0.0% | 2 | 3
Cc1oc(-c2ccccc2F)nc1CS(=O)CC(=O)NCc1ccc(Cl)cc1 (stereo not given) | -2.8 | -0.5 | -3 | -1.4% | 16 | 0
C=CC1=CCN(S(=O)(=O)C(C)(C)C)[C@H]1CCO | -6.0 | -0.5 | 1 | 0.7% | 14 | 3
Cc1ccc(CNC(=O)C2c3ccccc3C(=O)N3CCc4ccccc4C23)o1 (stereo not given) | -2.4 | 0.4 | -7 | 0.8%[38.3 µM] | -9 | -1
CCC(=O)Nc1ccc2c(c1)ncn2-c1ccccc1C | -1.2 | -0.7 | 9 | -1.4% | -6 | 0
Cc1ccc(C2NC(=S)NC3=C2C(=O)CC(C)(C)C3)cc1 (stereo not given) | -1.2 | 0.4 | 6 | 1.3% | -13 | 9
Cc1nn(C)c2c1c(C(F)(F)F)cc(=O)n2CC(=O)NCc1ccc(OC(C)C)cc1 | · | 3.7 | · | 2.3% | 36 | ·
CN(CC(=O)Nc1ccc(F)cc1)C(=O)c1ccc(-c2ccc(F)cc2)o1 | -5.5 | -0.4 | 0 | 6.4% | -4 | 11
O=S(=O)(NC1CC1)c1ccc(S(=O)(=O)N(Cc2ccccn2)C2CC2)cc1 | -0.5 | 1.4 | -12 | -0.9% | 0 | -3
COc1ccc(-c2ccc3[nH]c4c(c3c2)CCN2C(=O)[C@@H]([C@H](C)O)[C@@H](N(C)C(=O)Nc3ccc(F)cc3)C[C@@H]42)cc1 | -9.6 | 0.3 | -30 | 18% | -2 | ?
O=C(NCc1ccccc1)C12CN(Cc3ccccc3)CC1C(c1cccc([N+](=O)[O-])c1)=NO2 (stereo not given) | -2.6 | 0.7 | · | -0.3% | -17 | -20
Cc1c(OCC(=O)N2CCC(C(=O)NCCCC(=O)O)CC2)ccc2c1oc(=O)c1ccccc12 | 1.2 | 3.8 | · | 0.2% | 21 | ?
CSc1cccc(-c2nnc(NC(=O)c3cccc(N4C(=O)CCC4=O)c3)o2)c1 | -1.1 | -0.9 | -30 | 0.5% | -17 | -26
Cc1ccc(S(=O)(=O)N(C)C)cc1NC(=O)CSc1nncs1 | 0.4 | -0.3 | -4 | -1.7% | 0 | 7
COc1ccc(-c2nc3cc(C(C)C)ccc3o2)cc1NC(=O)c1ccc(C)c(Cl)c1 | · | 0.0 | · | 0.3% | -9 | ·
CC(C)CN1C(=O)c2ccc(C(=O)Nc3ccccn3)cc2C1=O | -2.9 | 0.4 | -3 | -1.5% | 2 | 3
CN(Cc1ccccc1F)C(=O)CN1C(=O)NC2(CCc3ccccc32)C1=O (stereo not given) | -2.3 | -0.1 | 2 | 0.9% | -10 | -3
O=C(CCN1C(=O)c2ccccc2C1=O)Nc1ccncc1 | 1.7 | -0.6 | 4 | 4.6% | -18 | -4
COC(=O)Cc1[nH]n(-c2nc3ccccc3s2)c(=O)c1C(C)=Nc1ccc(C)cc1 | -3.6 | -0.8 | -1 | 12% | 17 | -5
COC(=O)c1ccc(N2C(=O)C3CC=CC(C)C3C2=O)cc1 (stereo not given) | -2.7 | 0.4 | 0 | 0.6% | 4 | 3
O=C(NCc1ccccc1)c1nc(-c2cccs2)no1 | -8.4 | -0.6 | 1 | -0.4% | 10 | 6
O=C(COC(=O)Cc1ccc(S(=O)(=O)N2CCCCC2)s1)Nc1ccc2c(c1)OCO2 | 0.0 | -1.4&-0.3 | -1 | -0.4%&-0.6% | 7 | -4
NC(=O)[C@H](Cc1cc2ccccc2s1)NC(=O)[C@@H]1CC2(CC(c3cccc(NC(=O)[C@@H]4CCC(=O)N4)c3)=NO2)CN1C(=O)c1ccccc1 (stereo not given in full) | -0.4 | -0.6 | -8 | 2.1% | -16 | -12
Cn1nc(C(F)(F)F)c(C#N)c1N1CCN(c2ccccn2)CC1 | -0.2 | -0.6 | 1 | 0.9% | -15 | 0
CCn1c2ccccc2c2cc(NC(=O)c3cc(C)on3)ccc21 | -1.6 | 1.7 | 0 | 2.2% | -5 | -4
CCCOC(=O)C1=C(C)NC2=C(C(=O)CC(C)(C)C2)C1c1ccc(N(C)C)cc1 (stereo not given) | -3.2 | 0.8 | -18 | 5.7% | 3 | -21
Cc1ccc(S(=O)(=O)N(CC(=O)NCc2cccs2)c2ccccc2)cc1 | -0.6 | 1.9 | -16 | 2.4% | 8 | 18
O=C(COC(=O)c1cc(NS(=O)(=O)c2cccs2)ccc1O)Nc1ccccc1 | -6.0 | · | 0 | -1.0% | · | -4
CC(=O)NC(CSC(CC(=O)c1ccco1)c1ccc(C)cc1)C(=O)O (stereo not given) | 4.8 | 4.7 | 2 | -1.7% | 21 | -3
CC(C)N(C(=O)Cn1cc(S(=O)(=O)CC(=O)NCc2ccc(F)cc2)c2ccccc21)C(C)C | -0.3 | 0.2 | 11 | 0.8% | -11 | -5
COc1cc(CNCc2cc(OC)ccc2OC)cc(OC)c1 | -5.7 | -0.4 | 2 | -0.9% | 3 | -14
c1ccc2c(c1)CC(N1CCCCC1)c1ccccc1S2 (stereo not given) | -2.6 | 2.5 | 11 | ? | 8 | 15
CC(C)C[C@H](NC(=O)NCc1ccc(F)cc1)C(=O)O | 0.3 | 0.0 | 1 | 1.6% | -6 | 8
COc1ccc(OCCCC(=O)N2CCN(S(=O)(=O)c3cccc(F)c3)CC2)cc1 | 2.3 | 3.3 | -2 | -1.5% | 5 | -3
O=C(Cn1ncc2ccc(Cl)cc21)NCc1ccc(F)cc1 | · | -0.4 | · | 0.1% | -3 | ·
Cc1ccc(NC2CCCN(C(=O)CCc3cn[nH]c3)C2)cc1C (stereo not given) | -9.1 | 0.1 | 0 | -0.9% | 18 | 6
C#Cc1ccc([C@H]2C=C(C(=O)OCC=C)O[C@@H](OCCCCO)C2)cc1 | 0.9 | 0.8 | -1 | 0.7% | 18 | -3
O=C(O)c1ccccc1C(=O)NCCCCCCNC(=O)c1ccccc1C(=O)O | 5.4 | 0.5 | -2 | 2.1% | 8 | 6
Cc1ccc(C)c(N(C(=O)CS(=O)CC(=O)Nc2ccc3c(c2)OCO3)C(C)C(=O)NC2CCCC2)c1 (stereo not given) | -0.9 | -1.0 | 4 | -1.0% | 4 | 6
COc1ccc(N2CCN(C(=O)CNC(=O)c3cn(-c4ccccc4OC)c(=O)c4ccccc34)CC2)cc1 | -1.2 | 1.8 | 0 | -0.6% | 43 | -6
CCn1c(C)cc(O)c(C(=O)Nc2cccc(Cl)c2)c1=O | -6.6 | -0.5 | · | 1.0% | -1 | 13
CS(=O)(=O)N1CCC(C(=O)Nc2cccc(Cl)c2)CC1 | -2.5 | 0.2 | -8 | 0.9% | 22 | -2
NC(=O)COc1ccccc1C(=O)NC12CC3CC(CC(C3)C1)C2 | -5.1 | -0.2 | -7 | -1.5% | 4 | -15
Cc1cccc(C)c1NC(=O)CN1CCN(C(=O)CCC(=O)N2CCC(c3ccccc3)=N2)CC1 | 1.0 | -0.8 | 4 | -0.6% | 7 | 0
CC(=O)Oc1ccc(N(C(C)=O)S(=O)(=O)c2cc([N+](=O)[O-])ccc2C)cc1 | 1.5 | -0.4 | -14 | 1.3% | -4 | ?
N#Cc1c(/N=C\c2ccc(O)c([N+](=O)[O-])c2)sc2c1CCCC2 | ? | 0.6 | · | -1.0% | 5 | -14
O=c1nc2n(CCO)c3ccccc3cc-2c(=O)[nH]1 | -0.2 | 1.0 | 2 | 0.4% | -8 | 0
CC(C)C(c1nnnn1Cc1ccc(F)cc1)N1CCN(C2CCCCC2)CC1 (stereo not given) | -4.5 | 0.6 | 4 | -2.6% | 19 | 24
O=C1CCCN2N=C(SCC(=O)Nc3cccc(C(F)(F)F)c3)SC2=N1 | -2.2 | 0.1 | 5 | 4.7% | 60 | 10
O=C(Cn1c(=O)c(C(F)(F)F)nc2ccccc21)Nc1ccc(Br)cc1F | · | -1.1 | · | 0.2% | 15 | ·
CCOc1ccc(C(=O)NC2CCN(C(=O)NCc3ccccc3)CC2)cc1 | -0.5 | 0.8 | 3 | -2.8% | 4 | 1
CCOc1ccc(CSCCNC(=S)Nc2ccc(OC)cc2)cc1 | -5.6 | 1.8 | · | 4.0% | 0 | -26
O=S(=O)(Nc1ccc(-c2nc3cccnc3s2)cc1)c1ccc(Cl)s1 | -2.2 | 0.3 | -9 | 3.4% | 16 | 1
Cc1cccc(N2CC(C(=O)Nc3nc4ccc(S(C)(=O)=O)cc4s3)CC2=O)c1C (stereo not given) | 1.5 | 0.1 | 0 | 3.0% | 25 | -1
CC(Oc1cccc(Br)c1)C(=O)NNC(=O)CCNC(=O)c1ccccc1Cl (stereo not given) | 2.6 | 2.5 | -3 | -0.7% | 5 | 4

Screens as filed in PubChem.

Rows are unselected; overall some 1% were active at least once.
